# RmlCD inh 1536 = inhibitors of Mycobacterium tuberculosis RmlC and RmlD coupled enzymes; inhibition, % at 3.6 µM; 0.03% of 160,000 active; P9WH09+P9WH11; AID 1533; RmlC+RmlD coupled enzyme assay, percent inhibition; primary screen in compound mixtures; in the data active means inhibition mostly above about 34%, no sharp cut-off; only retested compounds are shown here; further: some results filed as inactive read as strong as hits
# Target sequence (P9WH09 whole entry, looked up): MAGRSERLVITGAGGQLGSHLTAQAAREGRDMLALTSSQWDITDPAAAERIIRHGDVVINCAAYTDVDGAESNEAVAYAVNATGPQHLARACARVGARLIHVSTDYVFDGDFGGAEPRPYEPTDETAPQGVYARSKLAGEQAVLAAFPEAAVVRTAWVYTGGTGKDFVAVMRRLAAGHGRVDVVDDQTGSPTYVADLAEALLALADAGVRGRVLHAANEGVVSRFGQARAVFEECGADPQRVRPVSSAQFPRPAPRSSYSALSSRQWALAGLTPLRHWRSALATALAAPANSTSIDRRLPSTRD
# Target sequence (P9WH11 whole entry, looked up): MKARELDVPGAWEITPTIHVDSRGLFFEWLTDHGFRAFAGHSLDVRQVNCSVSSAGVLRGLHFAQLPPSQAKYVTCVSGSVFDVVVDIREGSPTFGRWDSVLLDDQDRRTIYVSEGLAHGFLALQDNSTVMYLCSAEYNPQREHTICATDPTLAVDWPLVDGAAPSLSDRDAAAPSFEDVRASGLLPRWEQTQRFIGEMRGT
# RmlCD inh 1536 retest = also measured in RmlCD inh 1536; calls as there; inhibition, %; measured here: mean retest inhibition;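 single compounds in two wells; values far above 100% likely come from compound fluorescence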
# * hit, by the source's call. A portion of the library. The share of hits here may be higher or lower than overall.
SMILES,RmlCD inh 1536,RmlCD inh 1536 retest
CCC(=O)Nc1ccc(Cl)c(NC(=S)NC(=O)COc2ccc(Cl)cc2)c1,38,4
Cn1c(=O)[nH]c(=O)c2c1nc(N(CCO)Cc1ccccc1)n2CCCc1ccccc1,57,-7
FC(F)Oc1ccc(NC(=S)NCc2ccco2)cc1Cl,47,7
CN1CCN(CCCNC(=O)Nc2cccc3ccccc23)CC1,35,-5
COc1ccc(Cl)cc1N(CC(=O)NC1CC1)S(=O)(=O)c1ccc(C)c([N+](=O)[O-])c1,85,-9
COc1cccc(NC(=O)/C=C/c2ccco2)c1,105,2
COc1ccc(-c2cc3nc4n(c(=O)c3s2)CCC4)cc1,77*,66*
CCNC(=O)Nc1cc(OC)c(OC)cc1C(=O)O,81,3
CCCCCCc1c(O)c2ccccc2[nH]c1=O,49,12
Cc1ccc(S(=O)(=O)N2CCN(c3ccc([N+](=O)[O-])c4cccnc34)CC2)cc1,38,-2
Cc1ccc(S(=O)(=O)N/N=C/c2ccc(OC3CSC3)cc2)cc1,32,-8
Cn1cc(CCC(=O)N2CCCC(CCC(=O)NCc3ccccc3F)C2)cn1 (stereo not drawn),40,-2
O=C(/N=C1/c2ccccc2CN1c1ccccc1)Nc1ccccc1,33,7
O=C(CCC(=O)NCCO)NCCO,33,4
CCN(CC)CCNC(=O)c1cc2c(-c3ccc(Cl)cc3)nn(C)c2s1,34,19
Cc1ccc(/C=N/NC(=O)c2cccc(S(=O)(=O)Nc3cccc(Cl)c3)c2)o1,65,-8
Cc1ccc(N(C(=O)CS(=O)CC(=O)Nc2ccc(F)cc2)C(C(=O)NC2CCCCC2)c2ccco2)cc1 (stereo not drawn),69,-13
CS(=O)(=O)c1ccc2nc(NC(=O)c3ccc(Cl)nc3)sc2c1,95,1
O=C(c1ccccc1F)N1CCN(c2ccc([N+](=O)[O-])c3ncccc23)CC1,62,4
CC(CCc1ccccc1)NC(=O)/C=C/c1ccc(F)cc1 (stereo not drawn),43,13
CCCNC(=O)c1ccccc1NC(=O)c1ccccc1N(C)S(=O)(=O)c1ccccc1,50,-8
Cc1cc(NC(=O)c2ccccc2-c2ccccc2)ccc1Br,32,8
C/C(Cn1nnc([N+](=O)[O-])n1)=N\NC(=O)c1ccccc1O,79,-13
C/C=C/C=C/C(=O)OC(C)C(=O)Nc1cc([N+](=O)[O-])ccc1OC (stereo not drawn),52,-11
CCOC(=O)C1=C(C)C/C(=N\NC(=O)c2ccccc2O)CC1,52,-23
CCOC(=O)c1c(C)c(C(=O)NCc2ccc(OC)cc2)c(C)n1C,30,1
CCOc1ccc2[nH]c3c(=O)n(CCC4=CCCCC4)cnc3c2c1,31,-11
CCOC(=O)CCCc1ccc(/C(C)=N/NC(N)=S)cc1,84,-8
COC(=O)Cc1ccc(NC(=S)N2CCCC(CO)C2)cc1 (stereo not drawn),99,-9
O=C(Nc1ccccc1Cl)c1ccc(COc2ccc3c(c2)CCC3)cc1,88,10
COc1ccccc1CNC(=O)COc1ccc(C)nc1[N+](=O)[O-],39,-13
Cc1cc(C=C2C(=O)c3ccccc3C2=O)c(C)n1-c1ccc(C(=O)O)cc1,35,2
COc1cccc2cc(C(=O)N(Cc3cccs3)CC3CCCO3)c(=O)oc12 (stereo not drawn),35,-6
CCn1c(=O)c(C(=O)CN2CCN(Cc3ccc4c(c3)OCO4)CC2)c(N)n(Cc2ccccc2)c1=O,34,-10
Clc1ccc(SCc2csc(N3CCOCC3)n2)cc1,84,1
Cc1ccc(C)c(NC(=S)NNC(=O)c2csc3c2CCC(C)C3)c1 (stereo not drawn),36,-2
O=C(Cc1ccccc1)N/N=C/c1cccc([N+](=O)[O-])c1,38,7
N#CCCN1CCN(C(=S)c2ccc(-c3cc(Cl)ccc3Cl)o2)CC1,32,8
O=C(NC1=NCCS1)c1cccc(N2C(=O)c3ccccc3C2=O)c1,59,-33
CCN1CCN(C(=O)CN(C)S(=O)(=O)c2cc(C)ccc2OC)CC1,41,-12

# Among those listed so far, these have an NH in an aromatic ring.
SMILES,RmlCD inh 1536,RmlCD inh 1536 retest
Cn1c(=O)[nH]c(=O)c2c1nc(N(CCO)Cc1ccccc1)n2CCCc1ccccc1,57,-7
CCCCCCc1c(O)c2ccccc2[nH]c1=O,49,12
CCOc1ccc2[nH]c3c(=O)n(CCC4=CCCCC4)cnc3c2c1,31,-11

# Next part.
SMILES,RmlCD inh 1536,RmlCD inh 1536 retest
COc1cc(C(=O)NCc2ccc(-n3cccc3)cc2)cc(OC)c1OC,37,-7
COCCn1c(SCC(=O)NNC(=O)Cc2ccccc2)nc2ccccc2c1=O,48,-12
CCOC(=O)c1sc(Nc2nc3ccc(OC)cc3s2)cc1C,43,-6
CCCn1nnc(NC(=O)c2ccc(Br)o2)n1,54,0
CCC1C(=O)NCCN1C(=O)c1ccccc1OC1CCN(S(C)(=O)=O)CC1 (stereo not drawn),36,10
CNC(=O)N(O)C1N(/N=C/c2cccnc2)C(=S)SC1(C)C (stereo not drawn),44,8
CCOC(=O)/C(C#N)=C\c1ccc(O)c(OC)c1,88,-7
CCC(=O)NC(NC(=S)Nc1ccc(S(N)(=O)=O)cc1)C(Cl)(Cl)Cl (stereo not drawn),31,17
Cc1ccc(S(=O)(=O)Nc2ccc3c(c2)c2c(n3S(=O)(=O)c3ccc(C)cc3)CCCC2=O)cc1,32,0
CCOC(=O)c1cc(-c2ccccc2)sc1NC(=O)c1ccc(OC)c(OC)c1,55,-108
O=C(Cc1ccccc1)NC(=S)Nc1ccc(N2CCCCC2)cc1,35,-1
c1ccc(-c2n[nH]c(-c3ccccn3)n2)cc1,100,0
COc1ccc(-c2csc3ncn(-c4ccc(C)cc4)c(=O)c23)cc1OC,38,-24
COc1ccc(CCCc2nnc(SCC(=O)Nc3ccc(OC)cc3)o2)cc1,45,4
O=C(NNc1c(Cl)cc(Cl)cc1Cl)C1CCC1,51,13
O=C(CNC(=O)c1ccncc1)N/N=C/c1ccccc1[N+](=O)[O-],55,15
O=C(C1CCCN(S(=O)(=O)c2cnc[nH]2)C1)N1CCN(Cc2ccccc2)CC1 (stereo not drawn),48,-4
COc1ccccc1-c1cc2nc(C)c(CCC(=O)NCc3ccc(F)cc3)c(C)n2n1,81,20
CCc1cccc(CC)c1NC(=O)COC(=O)c1ccc(F)c(S(=O)(=O)N(CC)CC)c1,40,-15
COc1ccc(C2CC(c3ccccc3)=NN2C(=O)CSc2ncccn2)cc1 (stereo not drawn),99,-1
Cc1cc(N2CCN(C)CC2)nc2ccc(NC(=S)N3CCCCC3)cc12,69,-10
CC1(C)C=C(c2ccc(C=O)s2)CC(C)(C)N1C=O,34,3
COc1ccc(-c2csc(N(CCc3ccccc3)C(=O)COc3ccccc3)n2)cc1,103,-15
O=C(/C=N/O)Nc1ccc(F)cc1,34,-9
Cc1nnc(SCC(=O)NNC(=O)c2ccc(Cl)cc2)n1CC1CCCO1 (stereo not drawn),65,-12
O=C(COC(=O)COc1ccc(Br)cc1)NCCC1=CCCCC1,33,-4
Brc1ccc(/C=N/n2cnnc2)s1,89,-10
Cc1ccc(OCC(=O)Nc2ccc(N3CCN(S(C)(=O)=O)CC3)cc2)cc1C,40,-26
CCCCNC(=O)C1CCC(CNS(=O)(=O)c2ccc(C)cc2)CC1 (stereo not drawn),50,-30
CCOc1ccc(-c2n[nH]c(=S)n2/N=C/c2cc3c(cc2[N+](=O)[O-])OCO3)cc1,38,-4
O=C(CSc1nccc(=O)[nH]1)NC1CCCc2ccccc21 (stereo not drawn),43,8
N/C(=N\OC(=O)c1cccs1)C1(c2ccc(Cl)cc2Cl)CC1,70,-6
O=S(=O)(Cc1ccccc1)C1CCCCC1O (stereo not drawn),37,-11
Cn1cnnc1SCc1ccc(-c2ccc(Br)cc2)o1,32,-4
O=[N+]([O-])c1ccc(N/N=C2/CCCCC2c2ccccn2)cc1 (stereo not drawn),32,-4
O=C(c1cc2ncc(CCCl)cn2n1)N1CCCCCC1,57,2
COc1ccc(-c2cc(-c3ccc(C)cc3)nc(SCc3nnc(-c4ccccc4)o3)c2C#N)cc1OC,83,-68
Cc1c(NC(=O)c2cc(-c3ccccc3O)on2)c(=O)n(-c2ccccc2)n1C,35,-3
CCOC(=O)c1oc2ccccc2c1NC(=O)COc1ccc(F)cc1,38,-99
O=C(NC1CCS(=O)(=O)C1)c1cc(-c2ccccc2)nc2ccccc12 (stereo not drawn),48,-15
Cc1ccccc1C(=O)NC(=S)N(C)CCc1ccccn1,51,-6
COc1ccccc1OCC(=O)Nc1cc(Cl)ccc1Oc1ccccc1,38,10
Cc1oc2c(CN3CCOCC3)c(O)ccc2c(=O)c1-c1ccccc1,66*,54*
c1ccc(-n2ncc3c(N4CCCCC4)ncnc32)cc1,52,-18
COc1cc2c(cc1OC)-c1cc(Nc3ccc(N(C)C)cc3)nc(=O)n1CC2,44,23
Nc1ccc(N=Nc2ccc(N)cc2)cc1,40,14
CN(C)c1nc(-c2ccccc2)ncc1S(=O)(=O)c1ccccc1,31,2
O=C(CCN1C(=O)COc2ccccc21)N1CCN(c2ccccc2)CC1,74,2
CN1C(=O)c2ccccc2Sc2ccc(C(=O)N3CCC4(CC3)OCCO4)cc21,39,0
COCCN(CCOC)S(=O)(=O)c1ccc(C(=O)Nc2sc3c(c2C(N)=O)CCCCC3)cc1,50,20
CC(=O)c1sc2nc(-c3cccs3)ccc2c1N,39,29
Cc1ccc(-c2csc(/C(C#N)=C/Nc3ccccc3SC(F)(F)F)n2)cc1,31,-6
CCOc1ccc2c(c1)OC(c1ccc(OC)cc1)(C(F)(F)F)NC2=O (stereo not drawn),31,2
CC(=O)Nc1ccc(NC(=O)C(C)OC(=O)c2ccccc2NS(=O)(=O)c2cccs2)cc1 (stereo not drawn),51,13
COc1cccc(/C=N/Nc2nc3ccccc3[nH]2)c1OC,31,-2
Cc1ccc(C(=O)NC(NC(=S)Nc2ccc(S(N)(=O)=O)cc2)C(Cl)(Cl)Cl)cc1 (stereo not drawn),33,-8
CC(C)OC(=O)/C(C#N)=C/c1cn(C)c2ccccc12,95,-26
CC(C)(C)C(=O)Nc1cc(S(=O)(=O)Nc2ccc(Cl)cc2)ccc1Cl,63,-7
COCCCNC(=O)/C(C#N)=C1\N=C(NC(=O)c2cccs2)c2ccccc21,45,-10
COCC(C)n1c(SCC(=O)NNC(=O)c2ccc(F)cc2)nc2ccccc2c1=O (stereo not drawn),77,8
# (list continues)
SMILES,RmlCD inh 1536,RmlCD inh 1536 retest
CCOC(=O)c1c(NC(=O)COC(=O)CNC(=O)c2ccco2)sc(C(C)=O)c1C,38,13
CSc1nc2ccc(NC(=O)c3ccco3)cc2s1,39,1
NC(=S)NNC(=O)c1cc(C(F)(F)F)cc(C(F)(F)F)c1,31,-9
NC(=O)CSc1ccc(F)cc1,34,-2
N#CC1=C(SCC(=O)c2ccccc2)NC2=C(C(=O)CCC2)C1c1ccco1 (stereo not drawn),40,13
Cc1cccc(-c2nsc(SCC(=O)c3ccc(Cl)cc3)n2)c1,79,11
O=S(=O)(Nc1ccc(-c2cnco2)cc1)c1ccccc1,36,3
CCCCCCCCCC(=O)NNC(=O)c1c(O)c2ccccc2n(CCC)c1=O,47,15
COc1ccc(NS(=O)(=O)c2cc(NC(=O)/C=C/c3ccccc3OC)ccc2N2CCCCC2)cc1,108,1
Cc1cccc(S(=O)(=O)Nc2nc3ccccc3nc2NCc2ccc3c(c2)OCO3)c1,52,20
CCCOCn1cc(F)c(=O)[nH]c1=O,75,-3
CCC(=O)Nc1nnc(-c2cccs2)s1,48,-7
COC(=O)c1nc(NC(C)=O)n[nH]1,53,-11
CCOc1cc(/C=N/NC(=O)c2cccnc2)ccc1OCC(=O)N1CCOCC1,42,-14
COc1cccc(CN(C(=O)/C=C/c2ccc(Cl)cc2)C2CCS(=O)(=O)C2)c1 (stereo not drawn),65,2
CC(C)c1ccc(-n2c(-c3ccccc3)c[n+]3c2CCc2ccccc2-3)cc1,94,6
COC(=O)c1cccc(CN2C(=O)SC(Nc3ccccc3)C2=O)c1 (stereo not drawn),35,10
CCN(c1ccc(NC(=O)CCNC(=O)c2ccco2)cc1)C(C)C,31,-12
CCOC(=O)Cn1nc(C)c(NC(=O)COc2ccc(F)cc2F)c1C,52,9
COc1ccc(/C=N/NC(=S)Nc2cc(S(=O)(=O)N3CCOCC3)ccc2N2CCOCC2)cc1O,33,-17

# Profiles, quoted from the list:
# Cc1c(NC(=O)c2cc(-c3ccccc3O)on2)c(=O)n(-c2ccccc2)n1C in the list: RmlCD inh 1536: 35; RmlCD inh 1536 retest: -3
# COc1ccc(Cl)cc1N(CC(=O)NC1CC1)S(=O)(=O)c1ccc(C)c([N+](=O)[O-])c1 in the list: RmlCD inh 1536: 85; RmlCD inh 1536 retest: -9

# (listing goes on)
SMILES,RmlCD inh 1536,RmlCD inh 1536 retest
S=C(NCCc1ccccc1)Nc1ccc(Br)cc1,40,8
NC(=S)N/N=C/c1coc2cc(Cl)ccc2c1=O,74,2
C/C(=N\O)C(=O)NCCN1CCCCC1,31,-5
Cc1ccc(S(=O)(=O)Nc2ccccc2CNc2cccc(C)n2)cc1,33,11
Cc1cccc(NC2=NCC(=O)N2Cc2cccs2)c1,39,-23
Cc1ccc(C)c(C(=O)COC(=O)c2cc(Cl)nc3ccccc23)c1,75,-8
CCOc1ccc(Br)cc1S(=O)(=O)Nc1ccc(C(=O)Nc2ccccc2OC)cc1,42,-8
O=C1c2ccccc2C(Nc2ccccc2)N1Cc1ccc2c(c1)OCO2 (stereo not drawn),62,-6
CC(C)C(NC(=O)C(Cc1ccccc1)NC(=O)OCc1ccccc1)C(=O)O (stereo not drawn),68,-5
COc1ccccc1C/C(N)=N/OC(=O)c1ccco1,53,-17
CCOC(=O)c1c(/N=C/C2C(=O)NC(=O)NC2=O)sc2c1CCC2,94,-8

# Pulled by compound from the list above (4):
SMILES,RmlCD inh 1536,RmlCD inh 1536 retest
CCOC(=O)c1sc(Nc2nc3ccc(OC)cc3s2)cc1C,43,-6
O=C(CCC(=O)NCCO)NCCO,33,4
CNC(=O)N(O)C1N(/N=C/c2cccnc2)C(=S)SC1(C)C (stereo not drawn),44,8
COc1ccc(Cl)cc1N(CC(=O)NC1CC1)S(=O)(=O)c1ccc(C)c([N+](=O)[O-])c1,85,-9

# Source: PubChem
